Screening results as filed in PubChem BioAssay.
Mtb hypoxia inh – PubChem AID 1159583 | M. tuberculosis hypoxia-regulated fluorescent reporter, fluorescence | fluorescence inhibition, % (test concentration not listed) | 300,000 tested, 0.1% active;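 active means 35 to 45% if threefold the growth effect, above 45% if 1.5-fold the growth effect; inactive means the rest, general growth blockers included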;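 further: wells of about 50 µL received 100 nL stock; 0% = vehicle wells and 100% = reference inhibitor wells; whole bacteria with a GFP reporter of the hypoxia response; strong numbers were not always called active; many hits fall short of the cut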
Bead autofluor – counter-screen for toxin protease inhibitors: compound fluorescence | 360,000 tested, 3.1% active | compound autofluorescence counterscreen, microsphere flow cytometry; stronger effect = higher value | fluorescence intensity (test concentration not listed);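 active means at least 3 SD above the mean of all compounds, about 16000 in these data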;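 further: 100 nL of 1 mM stock went into each well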
BJeLR viability – MLPCN primary cell-based screen for lethality selective to Ras in HRASV12 cells | BJeLR (HRASV12) viability, CellTiter-Glo ATP luminescence, 48 h; reference of the scale not given here | inhibition, % (test concentration not listed) | 300,000 tested, 0.17% active | AID 1554, 2009;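 active means replicate mean above 50%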;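 further: 50 nL library stock added to about 25 µL; numbers are from one replicate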
Sa RN4220 lethal – growth inhibition of S. aureus RN4220, primary screen, OD600; inhibition, % (no concentration beside the values); 16 h; 330,000 tested, 0.33% active;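 active means z-score of -3 or lower and OD600 up to 0.18 on both plates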;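 further: plate controls were untreated cells for no effect and reference antibiotic for full effect; stock transfer was 100 nL into about 80 µL; one replicate is shown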
Sa ugtP lethal – growth inhibition of ugtP-null S. aureus, primary screen, RN4220 ugtP deletion, OD600 | 16 h; some inactives read as strong as hits | growth inhibition, % (test concentration not listed) | 330,000 tested, 0.54% active;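 active means z-score under -3 and OD600 up to 0.15 on both plates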;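 further: plate controls were untreated wells for no effect and antibiotic for full effect; wells of about 80 µL received 100 nL stock; the first replicate is given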
PrP 5UTR inh – inhibition of PrP 5' UTR reporter expression. cell-based PrP 5' UTR mRNA reporter, plate reader. inhibition, % (no concentration beside the values). 340,000 tested, 0.35% active;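 active means every replicate at 50% or more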;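 further: 0 = median of the neutral control wells; tested in H4 reporter cells; numbers are from one replicate; inactives centre near -14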
Mtb hypoxia inh growth – second read-out of Mtb hypoxia inh, no call of its own (marks repeat the call); growth inhibition, %; measured here: M. tuberculosis growth (absorbance);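 0% = vehicle and 100% = reference antibiotic; read after six days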
An asterisk follows results filed as active; / = not tested or not shown.

SMILES	Mtb hypoxia inh	Mtb hypoxia inh growth	Bead autofluor	BJeLR viability	Sa RN4220 lethal	Sa ugtP lethal	PrP 5UTR inh
CC(C)CCN1NC2(CCCC(C)C2)NC1=S (centres undefined)	4.0	-2.5	4485	0.4	5.8	11.8	-27.3
O=C(CNC(=O)OCc1ccccc1)NC1CCCCCC1	-16.5	4.6	4997	2.4	-1.1	-6.8	-4.4
CC(C)Cn1c(-c2ccc(Cl)cc2)cnc1SCC(=O)N1CCOCC1	5.6	-6.7	10146	-7.2	1.0	-1.7	-13.0
c1ccc(CC2CCN(c3ncnc4sccc34)CC2)cc1	5.4	8.5	3826	5.7	-0.8	18.1	-36.0
NC(=O)C1CCN(c2nc(-c3ccc4occc(=O)c4c3)cs2)CC1	6.7	5.9	3461	/	1.3	1.6	-9.1
O=C(NN=Cc1ccc2c(c1)OCO2)c1ccc2c(c1)OCO2	0.1	4.9	/	/	-3.2	1.5	/
COc1cccc(/C(C)=N/NC(=O)c2cc(-c3cccnc3)nc3ccccc23)c1	/	/	2156	-7.0	/	/	-56.5
Cc1nn2cc(-c3ccccc3)nc2[nH]c1=O	4.8	4.2	2580	-8.8	7.6	-3.8	-7.2
COc1ccc(Cn2nnnc2C(c2ccccn2)N2CCN(c3cc(Cl)ccc3C)CC2)cc1 (centres undefined)	-5.6	-3.9	10572	-0.3	0.0	-15.1	-12.2
Cc1ccc(N2CCN(C(=O)Nc3cccc([N+](=O)[O-])c3)CC2C)cc1 (centres undefined)	11.2	3.9	3527	3.3	2.6	-2.8	-6.2
N#Cc1ccc(C2=CC(=O)C[C@H](c3ccc4c(c3)OCO4)C2)cc1	9.1	8.5	3800	/	-10.9	-1.8	-4.2
C=CCCC1(C)C(=O)N(c2ccccc2)c2ccccc21 (centres undefined)	2.2	7.4	2701	-7.3	-2.5	-3.3	4.7
N#Cc1nc(-c2ccc(OCc3ccccc3)cc2)oc1NCCN1CCOCC1	3.9	10.4	/	-1.8	-9.1	3.4	/
CCCN1CCN(C(=O)Cn2nc(C)n3c(cc4sccc43)c2=O)CC1	5.8	-5.0	5880	-7.2	-6.3	9.0	-5.0
COc1ccc(C2CC(C(F)(F)F)n3ncc(C(=O)O)c3N2)cc1OC (centres undefined)	/	/	2785	2.4	2.2	-0.4	-13.9
Cc1ccc(-n2c(=S)[nH]c3nc4c(cc3c2=O)COC(C)(C)C4)cc1	-24.2	7.9	2266	-3.4	2.4	0.5	-18.3
Cc1c(N2C(=O)c3cccc4cccc(c34)C2=O)c(=O)n(-c2ccccc2)n1C	/	/	2953	-1.4	8.1	4.9	-3.4
CC(C)c1ccc(OCCCCCN2CCOCC2)cc1	-4.9	7.5	3716	3.2	6.3	11.6	-15.8
CCCC(=NNC(=O)C1CCCC1)c1ccccc1	-5.5	2.9	/	/	2.4	0.5	/
C/C(CC(=O)Nc1ccc(Cl)cc1Cl)=N\NC(N)=S	/	/	7828	-7.8	/	/	-22.7
Oc1oc(-c2ccccc2Br)nc1C=Nc1ccccn1	11.9	2.3	/	/	5.2	1.0	/
COc1ccc(C(=O)NN=C(C)c2cccc(NC(=O)c3ccc(F)cc3)c2)c(OC)c1	-13.1	-11.0	/	/	-5.5	-3.2	/
Cc1cc(C)n(-c2nc3ccccc3n3cnnc23)n1	1.6	-2.7	4280	-9.9	2.7	2.8	1.1
Cc1nc(N/N=C/c2cccc(F)c2)cc(N2CCOCC2)n1	/	/	3084	0.5	/	/	-25.7
OCCC1CN(CC2CCCCC2)CCN1CC1CCCCC1 (centres undefined)	14.4	2.7	4356	6.5	-1.1	3.6	-28.6
(cont.)
SMILES	Mtb hypoxia inh	Mtb hypoxia inh growth	Bead autofluor	BJeLR viability	Sa RN4220 lethal	Sa ugtP lethal	PrP 5UTR inh
Cc1ccc(NC(=O)C2COc3ccccc3O2)c(C)c1 (centres undefined)	10.0	4.7	3535	-10.9	5.4	9.3	-26.5
COc1ccc(-n2nc(C(=O)NCC(=O)N3CCOCC3)c3ccccc3c2=O)c(OC)c1	1.2	-4.3	4120	0.4	1.3	0.2	-22.9
CCc1ccccc1NC(=O)CCc1c(C)nn(-c2ccc(N3CCOCC3)nn2)c1C	-1.1	8.5	5329	6.4	-0.3	-1.1	-6.6
Cc1ccc(S(=O)(=O)n2ccnc2)cc1C	0.5	1.9	4864	2.5	6.4	-8.5	36.9
S=C(NCCOCCOCCNC(=S)Nc1ccccc1)Nc1ccccc1	18.2	6.4	2651	-0.2	1.0	-0.3	-26.0
Cc1ccccc1NC(=O)Cn1c(=O)n(-c2ccc(CC(=O)NCC3CCCO3)cc2)c(=O)c2ccccc21 (centres undefined)	8.4	-1.7	4580	4.6	2.6	1.1	-23.7
Cc1cc(=O)oc2c(C)c(OCC(=O)N3CCN(C(=O)C4COc5ccccc5O4)CC3)ccc12 (centres undefined)	-3.9	0.1	/	-1.2	1.0	2.6	-8.7
COc1cccc(NC(=O)CN(c2ccc3c(c2)OCO3)S(C)(=O)=O)c1	10.3	-3.3	3790	10.1	5.1	-0.8	-39.5
O=c1c2ccccc2nc(-c2cccs2)n1-c1ccccc1	2.4	6.3	/	12.0	5.5	2.7	4.5
CN(C(=O)c1ccco1)C1(c2ccccc2Cl)CCCCC1=O (centres undefined)	16.2	12.2	2894	-1.8	-1.4	13.4	-20.9
Cn1c(=O)oc2cc(S(=O)(=O)Nc3cccc([N+](=O)[O-])c3)ccc21	9.2	-3.9	3135	4.0	9.6	16.9	1.8
COc1ccc(CCNC(=O)COc2ccc(N(C)S(=O)(=O)c3ccc(Cl)cc3)cc2)cc1	5.2	2.5	4262	5.1	-5.8	-9.1	14.2
COCCN(Cc1cccs1)S(=O)(=O)c1csc(C(N)=O)c1	-5.9	-5.0	5321	11.6	1.6	3.1	-7.2
Cc1ccc(S(=O)(=O)N2CCN(C(=O)COC(=O)/C=C/c3ccccc3[N+](=O)[O-])CC2)c(C)c1	-7.4	-2.5	6046	-7.4	0.1	0.0	-8.1
CCOC(=O)C1CCN(C(=O)C2CCN(c3nn4c(=O)cc(C)nc4s3)CC2)CC1	-3.7	-8.3	6274	-16.5	4.5	8.3	-19.5
O=S(=O)(c1ccc(S(=O)(=O)N2CCCC2)cc1)N1CCCCCC1	6.3	0.3	7042	9.7	7.7	14.5	-18.8
COc1cccc(/C=C2/SC(=S)N(CC(=O)NNC(=O)c3ccccc3OC)C2=O)c1	-4.7	9.6	5472	6.9	4.5	1.8	-9.4
NC(=NOC(=O)C1CCCCC1)c1cccc([N+](=O)[O-])c1	-2.0	3.2	/	/	7.3	12.8	/
CCN(CC)c1ccc(C=NNC(=O)CNC(=O)/C=C/c2ccco2)cc1	6.8	0.2	/	/	-6.3	-7.4	/
CCN(CC)CCCn1c2c(c(SCC(=O)Nc3cc(OC)cc(OC)c3)nc1=O)CCC2	/	/	4555	5.1	/	/	-13.6
Cc1ccc(Cl)c(NC(=O)COC(=O)CNS(=O)(=O)/C=C/c2ccccc2)c1Cl	0.6	0.6	7254	-5.6	10.0	-3.4	-23.6
Cc1cc(-c2ccccc2)nc(SCc2ccc(C(=O)O)cc2)n1	5.7	3.0	3963	4.1	16.0	1.2	-19.6
O=C(N/C(=C\c1ccco1)C(=O)N1CCC(O)CC1)c1ccccc1	-4.7	-9.8	5809	3.7	2.3	12.3	-13.9
CCn1c(=O)cc(OCC(=O)NCCc2cccc(C)c2)c2ccccc21	4.9	-1.0	2426	0.7	11.8	-14.3	-7.8
CCc1cc2c(COC(=O)c3cccc(S(C)(=O)=O)c3)cc(=O)oc2cc1O	1.9	1.1	6183	-15.6	8.6	-10.4	-13.8
Other entries follow:
SMILES	Mtb hypoxia inh	Mtb hypoxia inh growth	Bead autofluor	BJeLR viability	Sa RN4220 lethal	Sa ugtP lethal	PrP 5UTR inh
CCOC(=O)Cc1cnc(NC(=O)Cn2nnc(-c3ccc(OCC)cc3)n2)s1	/	/	3813	4.2	-5.6	49.7	-6.8
CCOc1ccc(C(=O)CN2CCN(S(=O)(=O)c3ccc(Br)cc3)CC2)cc1	/	/	2809	1.2	-4.3	-13.6	-9.7
CCc1ccccc1-n1nnnc1-c1cnccc1C(F)(F)F	4.7	13.5	4577	2.3	0.0	-4.0	-7.7
Cc1ccc(S(=O)(=O)N2C(c3ccc(Cl)c(Cl)c3)CC=C(C(=O)O)C2c2cccc(Cl)c2)cc1 (centres undefined)	10.5	5.9	/	/	88.0*	100.1*	/
C=C(C)CN(CC)C(=O)CCc1nnc(CCc2c[nH]c3ccccc23)o1	-6.0	4.6	4237	-8.5	-1.0	-6.2	-31.1
O=S(=O)(c1cccc2ccccc12)n1nnc2ccccc21	4.2	4.4	/	2.0	3.5	0.5	/
CC(=NNC(=O)c1sc(NS(=O)(=O)c2ccccc2)nc1C)c1sc(N)nc1C	16.2	6.6	/	/	-2.0	-4.1	/
CCOC(=O)N1CCN(c2c(NCCCN3CCCC(C)C3)c(=O)c2=O)CC1 (centres undefined)	9.5	4.7	4373	2.9	2.7	10.8	-9.5
O=C(c1ccc(F)cc1)N1CCOC(c2nc(-c3ccc(F)cc3)no2)C1 (centres undefined)	2.9	1.7	3867	/	6.9	1.7	-13.0
Oc1cccc2cnccc12	10.3	0.6	3440	-10.3	2.8	-2.7	-32.2
CN1CCc2ccccc2C1Cc1ccccc1NC(=O)c1sc2ccccc2c1Cl (centres undefined)	14.0	8.1	4203	2.9	-3.4	5.6	-38.5
COc1ccccc1CN1CC(C(=O)N(C)Cc2nc(C)cs2)CCC1=O (centres undefined)	/	/	5415	1.0	/	/	-13.2
O=c1ccn(-c2cccc(C(F)(F)F)c2)nc1-c1ccn(-c2cccc(Cl)c2)n1	21.2	-15.0	2917	-3.1	-27.7	-32.6	-6.9
Nc1cccnc1S(=O)(=O)c1cccc(C(F)(F)F)c1	1.2	-3.0	4194	2.9	0.8	4.1	-8.9
COc1n[nH]c(C(=O)NCc2ccccc2)c1[N+](=O)[O-]	13.0	3.7	4087	3.0	4.6	0.3	10.4
CCOC(=O)c1sc(Nc2cccc(C)c2C)nc1C	5.7	6.8	/	-6.6	6.6	-0.6	/
COc1ccc(C2CC(=O)C=C(c3ccc(OC)nc3)C2)cc1 (centres undefined)	7.0	12.1	/	/	8.5	2.3	/
COC(=O)c1cccc(C(=O)N2CCCC(Nc3ccc(C)c(C)c3)C2)c1 (centres undefined)	3.9	6.2	5108	0.7	4.7	8.6	-24.2
CN(C)S(=O)(=O)c1cccc(C(=O)Nc2ccc3c(c2)CCC3)c1	-1.4	3.4	5780	-4.5	2.6	4.8	-61.2
COc1ccc(NC(=O)CCc2c(C)nc3nc(C)nn3c2C)cc1	3.3	3.6	4233	-0.1	1.3	3.8	-24.3
COc1ccc(N2CC(NC(=O)N3CCc4ccccc43)CC2=O)cc1OC (centres undefined)	5.2	-5.0	4992	0.1	0.3	3.3	-13.5
COC(=O)c1cc(Br)c(=O)n(-c2cccc(F)c2)c1	0.6	10.5	4481	2.2	0.1	4.2	-18.0
O=S(=O)(NCCN1CCCC1)c1ccc(Cl)cc1	4.4	10.4	6209	5.6	1.0	6.7	-28.1
Cc1nc(CNS(=O)(=O)c2ccccc2F)cs1	4.4	-0.6	6291	8.1	3.2	2.5	-14.8
Cc1cc(C=C2C(=O)c3ccccc3C2=O)c(C)n1C	4.6	4.3	2590	6.3	7.4	5.4	-49.8
Cc1ccc(N(CC(O)Cn2nc(C)cc2C)S(=O)(=O)c2ccc3ccccc3c2)cc1 (centres undefined)	-0.7	-8.5	2175	-23.2	2.3	-1.6	-37.2
Cc1ccc(C(=O)Nc2cc3[nH]c(=O)oc3cc2C)cc1	2.1	-3.0	3634	4.2	1.5	0.4	-7.1
CN(C)S(=O)(=O)c1ccc(Cl)c(C(=O)NC2CCCCCCC2)c1	-4.0	3.1	6151	6.2	1.7	14.8	-6.7

Entries listed so far that have bromine (three):
SMILES	Mtb hypoxia inh	Mtb hypoxia inh growth	Bead autofluor	BJeLR viability	Sa RN4220 lethal	Sa ugtP lethal	PrP 5UTR inh
Oc1oc(-c2ccccc2Br)nc1C=Nc1ccccn1	11.9	2.3	/	/	5.2	1.0	/
CCOc1ccc(C(=O)CN2CCN(S(=O)(=O)c3ccc(Br)cc3)CC2)cc1	/	/	2809	1.2	-4.3	-13.6	-9.7
COC(=O)c1cc(Br)c(=O)n(-c2cccc(F)c2)c1	0.6	10.5	4481	2.2	0.1	4.2	-18.0

Just Mtb hypoxia inh (2 entries from above):
| SMILES | Mtb hypoxia inh |
| --- | --- |
| COC(=O)c1cc(Br)c(=O)n(-c2cccc(F)c2)c1 | 0.6 |
| O=S(=O)(NCCN1CCCC1)c1ccc(Cl)cc1 | 4.4 |
